Screening results: PubChem, several laboratories
E coli growth: inhibitors of Escherichia coli growth. AID 1053175. OD600, 23 h; stronger effect = lower value. actives 0.21% (n = 330,000). OD600 absorbance (concentration not given with the values);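 active = OD600 absorbance below the run mean of sample wells minus 3.6 SD, in any replicate, cut at about 0.56 in these data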;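 also: stock transfer was 300 nL into about 60 µL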
AF4-AF9 inh: blocks AF4 peptide binding to human AF9; actives 0.47% (n = 350,000); inhibition, % at 10 µM; AID 651704; AlphaScreen, biotin-AF4 peptide binding to FLAG-AF9;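 active = every replicate reaching a set inhibition limit, whatever the replicate mean, cut at about 25% in these data; inconclusive = mean inhibition reaches that limit but some replicates miss it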;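 also: 0% = plate neutral control median and 100% = total signal loss; the record names both 10 and 1 µM as test concentration; the first replicate is given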
Target sequence (P42568 whole entry, looked up): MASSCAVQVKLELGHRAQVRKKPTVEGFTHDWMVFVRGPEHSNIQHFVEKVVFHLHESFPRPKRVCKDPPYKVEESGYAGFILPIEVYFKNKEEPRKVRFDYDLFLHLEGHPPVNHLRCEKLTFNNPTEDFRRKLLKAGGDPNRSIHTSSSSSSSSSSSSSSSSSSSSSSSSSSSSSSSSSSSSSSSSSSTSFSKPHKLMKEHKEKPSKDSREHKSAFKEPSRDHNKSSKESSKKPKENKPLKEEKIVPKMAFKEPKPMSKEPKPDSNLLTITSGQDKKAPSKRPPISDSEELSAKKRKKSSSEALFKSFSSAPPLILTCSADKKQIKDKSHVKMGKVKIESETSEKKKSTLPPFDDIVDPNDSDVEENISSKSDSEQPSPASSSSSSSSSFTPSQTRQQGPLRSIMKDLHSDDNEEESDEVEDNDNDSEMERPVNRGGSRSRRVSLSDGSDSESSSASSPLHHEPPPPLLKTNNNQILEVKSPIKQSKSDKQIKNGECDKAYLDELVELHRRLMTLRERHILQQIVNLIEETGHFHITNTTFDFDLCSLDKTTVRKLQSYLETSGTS
ALR inh: inhibitors of human sulfhydryl oxidase ALR; P55789; purified ALR, DTT oxidation, H2O2 HRP-luminol luminescence; inhibition, % (concentration not given with the values); actives 3.8% (n = 290,000); AID 485317;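 active = mean and each replicate at 75% or more; inconclusive = only one of the two met; inactive = neither met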;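 also: stock transfer was 7.5 nL into about 7.5 µL; 0% = neutral wells and 100% = wells with inactivated enzyme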
Target sequence (P55789 whole entry, looked up): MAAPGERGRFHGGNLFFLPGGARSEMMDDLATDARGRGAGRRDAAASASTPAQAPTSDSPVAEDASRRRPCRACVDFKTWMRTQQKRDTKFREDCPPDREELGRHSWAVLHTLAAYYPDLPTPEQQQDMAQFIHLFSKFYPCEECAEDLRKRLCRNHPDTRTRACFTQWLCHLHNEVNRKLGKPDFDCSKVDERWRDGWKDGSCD
Ecoli rRNA inh: selective bacterial rRNA inhibition in E. coli; actives 1.6% (n = 350,000); E. coli WT GFP vs humanized-ribosome RFP mutants, fluorescence, 24 h; stronger effect = lower value; DMSO median 0, no signal -100; AID 720706; GFP signal change (wild-type ribosome), % (test concentration not listed);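 active = significant combined selectivity score with lowered wild-type GFP, culture density cut under 30%, mutant RFP and density less affected; inactive = any of these conditions unmet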; also: one replicate is shown; some compounds called inactive have numbers as strong as hits
Vif TR-FRET: HIV-1 Vif–A3G interaction blockers – biochemical, TR-FRET, GST-Vif 1-94, biotin-A3G peptide, dose response retest, primary screen (AID 1117319). TR-FRET GST-Vif / biotin-A3G peptide binding; higher % means a stronger effect; test concentration not given here; strong numbers were not always called active. inhibition, %, or IC50 in µM where a hit was titrated. actives 0.57% (n = 260,000);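 active = above the screen mean plus three standard deviations and confirmed in dose response; inconclusive = results disagree or hit not tested in dose response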;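 also: Vif residues 1-94 fused to GST binding biotinylated APOBEC3G peptide 110-148; 0% = full assay without inhibitor and 100% = GST in place of GST-Vif; retest series ran down from 100 µM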
FGF22 binding: binders of recombinant human FGF22 by thermal shift. calls only at 9.99 µM. Q9HCT0. SYPRO orange fluorescence; percent of sucrose octasulfate shift, DMSO zero. AID 651658. actives 1.5% (n = 340,000);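 active = melting point raised past a set limit in the mean and every replicate; inconclusive = no clear call; three in four hits are not shown here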
Target sequence (Q9HCT0 whole entry, looked up): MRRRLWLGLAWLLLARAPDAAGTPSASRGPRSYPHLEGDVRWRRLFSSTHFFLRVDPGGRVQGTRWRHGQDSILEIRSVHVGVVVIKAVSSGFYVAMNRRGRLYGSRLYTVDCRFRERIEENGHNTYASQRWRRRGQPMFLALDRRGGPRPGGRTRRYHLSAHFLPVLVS
HNF4A DNA FP: change in binding of human HNF4 alpha to DNA; activity change, % at 10 µM; actives 0.3% (n = 360,000); P41235; HNF4a-FITC DNA binding, fluorescence polarization, 1 h; in the data active = activity change above about 30%, passing the limit was not always enough;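 also: controls were the assay level and a saturating level of protein; the project sought stronger binding though the title names inhibitors; some compounds called inactive have numbers as strong as hits; positive values seem to mean higher polarization but the record does not say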
Ecoli rRNA inh OD600: also measured in Ecoli rRNA inh; calls as there; OD600 change, %; measured here: OD600 growth;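 optical density of the mix in the first replicate; 0 = DMSO median and -100 = no signal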
Ecoli rRNA inh RFP: recorded beside Ecoli rRNA inh, whose call it bears; RFP signal change, %; measured here: RFP humanized mutant strains;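 first replicate; 0 = DMSO median and -100 = no signal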
The depositor's hits bear a star; i = inactive; ? = inconclusive; / = no result given; + = active, no number; & = joins results of further samples.

Below each SMILES – Ecoli rRNA inh OD600, HNF4A DNA FP, AF4-AF9 inh, Ecoli rRNA inh RFP, E coli growth, ALR inh, Ecoli rRNA inh, Vif TR-FRET, FGF22 binding
CCOC(=O)c1c(NC(=O)c2cc3n(n2)C(C(F)(F)F)CC(c2ccccc2)N3)sc(C)c1C (configuration not stated)
  6.5, -3.5, 4.9, 1.7, 0.721, 0.1, 18.1, 1.3%, i
COc1cccc(S(=O)(=O)N2C[C@H](O)COC[C@H]3O[C@@H](CC(=O)NCCCN4CCOCC4)CC[C@@H]32)c1
  6.0, /, -1.4, -1.2, /, /, 1.2, /, i
Cc1ccc(-c2nn(-c3ccccc3)cc2C(=O)Nc2ccc(C(=O)O)cc2)cc1
  -25.0, 3.1, -0.2, -3.6, /, 10.2, -25.1, 2.4%, i
CC(C)(C)OC(=O)C[C@@H]1C/C=C\C[C@H](CC(=O)N(CCO)Cc2ccccc2)C(=O)N[C@H](Cc2ccccc2)COC1=O
  -14.2, 3.6, 0.5, -0.5, /, -3.3, -5.2, /, i
CS(=O)(=O)N(Cc1ccc(C(=O)NC2CCCC2)cc1)c1ccccc1
  4.6, -3.8, -1.3, -1.6, 0.668, -8.6, 1.3, -7.8%, i
Fc1ccc2nc(Nc3nc4c(s3)CCCC4)sc2c1
  /, 6.8, /, /, 0.769, 26.2, /, -1.0%, /
Cc1cccc(NS(=O)(=O)c2cc3c4c(c2)CC(=O)N4CCC3)c1C
  -5.6, -2.0, 0.3, 5.3, 0.651, 8.7, 1.2, 0.8%, i
CCOc1ccccc1Nc1nnc(SCC(=O)N(C)C2CCS(=O)(=O)C2)s1 (configuration not stated)
  /, 1.7, -3.2, /, 0.652, -0.3, /, -6.6%, i
Cn1c(COc2ccccc2)nnc1SCC(=O)NCc1ccccc1
  -1.0, -0.3, -46.7, -0.4, 0.677, -2.0, 1.6, -0.8%, i
COCCCNC(=O)Cn1cc(/C=C(\C#N)C(=O)NC2CC2)c2ccccc21
  3.3, 0.1, 1.7, -3.2, 0.7, -4.3, 3.2, /, /
Cc1ccc(Nc2ncc(C(=O)NCCCN3CCN(C)CC3)c3ccccc23)cc1Cl
  -0.1, 5.1, 6.6, -2.7, 0.693, ?, -14.8, 21.5%, i
COc1ccccc1-c1cnnc(N/N=C/c2ccc(-c3cccc(Br)c3)o2)n1
  /, -2.6, /, /, /, -3.5, /, 4.8%, /
CCC(=O)N1CC2(C1)[C@@H](c1ccccc1)[C@@H](CO)N2Cc1ccccc1F
  -0.7, /, 0.6, 0.4, /, /, -1.5, /, i
COc1ccc([C@H]2CC(=O)C=C(c3ccc(Oc4ccccc4)cc3)C2)cc1OC
  -3.2, -3.6, 5.4, -3.1, /, -5.3, -4.3, /, i
CC1(C)CC2CC(C)(CN2S(=O)(=O)c2cccc(C(=O)OCC(=O)NC(N)=O)c2)C1 (configuration not stated)
  -9.1, 1.9, 0.5, 1.0, 0.679, -9.9, -4.2, 3.0%, /
COc1cccc(NC(=O)C2(C)CCN2C(=O)Cc2cccc3ccccc23)c1 (configuration not stated)
  -26.0, 4.5, -3.8, -2.6, /, /, -10.4, /, i
COc1ccc(NC(=O)Nc2ccc3c(c2)C(=O)N([C@@H](C)CO)C[C@H](C)[C@@H](CN(C)Cc2ccncc2)OCCCC[C@H](C)O3)cc1
  -8.6, /, 2.0, 0.9, /, /, -2.2, /, i
Cc1cc(Cl)c(OCCOCCN2CCCC(C)C2)c(Br)c1 (configuration not stated)
  -5.6, 0.0, -2.9, 1.3, 0.646, -11.2, -0.9, -2.6%, i
CCN1[C@@H]2c3ccc(-c4ccccc4OC)c(=O)n3C[C@@H]2[C@@H](CO)[C@@H]1C(=O)NCC1CC1
  -4.0, /, -1.1, -1.2, /, /, 0.6, /, i
O=C(C[C@@H]1CC[C@@H]2[C@H](COC[C@H](O)CN2C(=O)c2ccccc2)O1)NC1Cc2ccccc2C1
  11.3, /, -1.5, -0.7, /, /, -0.5, /, i
CC(C)=CCCC1=CC[C@H]2[C@@H](C1)C(C(C)C)=CC(=O)[C@@]2(C)O
  -34.7, /, -3.8, -1.8, /, /, -19.1, /, i
O=S1(=O)CC(N2CCN(Cc3ccccc3F)CC2)CN1Cc1cn(Cc2ccccc2)nn1 (configuration not stated)
  11.5, 3.5, -3.8, 0.5, /, /, 15.0, /, i
C[C@H]1CN([C@@H](C)CO)C(=O)c2cc(C#CCc3ccccc3)cnc2O[C@H]1CN(C)Cc1ccccc1
  -65.1, /, 5.2, 12.9, /, /, -34.5, /, i
CCCC#Cc1ccc2c(c1)O[C@@H](CN(C)S(C)(=O)=O)[C@H](C)CN([C@@H](C)CO)S2(=O)=O
  -16.8, /, 1.1, 1.7, /, /, -7.3, /, i
Cc1ccc(Nc2cc(C)nc3ccc(C)cc23)cc1
  -12.1, 2.6, 2.2, -0.6, 0.645, -26.1, -11.0, 1.6%, i
COc1ccc2[nH]c3c(NCc4ccco4)ncnc3c2c1
  /, /, /, /, 0.619, 97.7*, /, 19.4%, /
CCOC(=O)C1CCN(Cc2nnc(-c3cccc(Br)c3)o2)CC1
  11.9, 1.1, -2.0, 1.0, 0.667, -13.6, 2.2, -1.8%, i
CC(=O)Nc1ccc(CN2CCCC(C(=O)c3ccc(C(F)(F)F)cc3)C2)cc1 (configuration not stated)
  -3.6, 1.9, 1.8, 1.5, 0.691, -6.1, -2.5, /, i
CNC(=O)CN(c1cc(C)ccc1C)S(C)(=O)=O
  /, -6.0, /, /, 0.72, -2.1, /, -1.2%, /
Cc1cccc(N2CCN(C(=O)c3ccc4nc(-c5ccco5)c(-c5ccco5)nc4c3)CC2C)c1 (configuration not stated)
  /, 1.3, /, /, 0.702, -7.3, /, ?, /
CNC[C@@H]1Oc2c(NC(=O)NC3CCCCC3)cccc2C(=O)N([C@H](C)CO)C[C@@H]1C
  -2.0, /, -1.6, -1.1, /, /, 2.1, /, i
COc1ccc(CN(C(=O)c2ccc(C)cc2)C2CCS(=O)(=O)C2)cc1 (configuration not stated)
  10.9, 4.5, 1.4, -2.5, 0.686, -6.0, 2.8, -3.2%, i
Cc1ccc(C2C3=C(CC(C)(C)CC3=O)N=C3c4ccccc4C(=O)C32)cc1 (configuration not stated)
  /, -1.1, /, /, 0.726, 2.4, /, /, /
COc1ccccc1CC1(C)NC(=O)N(CC(=O)Nc2cc(C)on2)C1=O (configuration not stated)
  /, 0.8, /, /, 0.714, -0.6, /, 21.6%, /
Cc1cc(C)c(NC(=O)C2CCCN2CCO)c(C)c1 (configuration not stated)
  /, 4.3, /, /, 0.684, -23.6, /, 11.8%, /
O=C(CCc1ccc(S(=O)(=O)N2CCOCC2)cc1)Nc1ccccc1F
  12.3, 0.8, -0.7, 6.3, 0.69, -4.6, 14.3, /, +
CC1(C)CC(=O)C=C(NCCN2CCN(C(=S)NC3CCCCC3)CC2)C1
  3.6, 2.2, 0.8, 5.0, 0.6, -3.2, 19.7, -0.6%, i
CCOC(=O)c1sc(=NC(=O)c2ccc(Cl)s2)n(C)c1C
  -2.7, 1.9, 1.5, -2.8, 0.697, 0.0, 2.0, -3.5%, i
Cc1oc(-c2ccccc2Cl)nc1CS(=O)CC(=O)NCc1ccc(Cl)cc1 (configuration not stated)
  -10.4, -2.2, -18.2, -0.6, 0.636, 98.7*, -9.3, /, i
COc1cccc(NC(=O)c2sc3nc(N4CCOCC4)c4c(c3c2N)CCCC4)c1
  -5.8, -0.3, -8.4, -1.7, 0.703, -1.9, -8.4, -3.0%, i
O=C(c1cccnc1)N1C[C@@H]2[C@H](c3ccccc31)[C@@H](CO)N2C(=O)Nc1cccc(F)c1
  6.9, /, -1.1, -2.5, /, /, -2.6, /, i
Cn1c(=O)[nH]c(=O)c2c1nc(Br)n2CCSc1ncccn1
  /, 5.9, /, /, 0.682, 4.5, /, -1.5%&3.8%, /
CC(=O)N1CCCc2ccc(NS(=O)(=O)c3ccccc3)cc21
  -7.8, 1.2, 0.2, 0.8, 0.65, /, -0.8, 3.9%, i
CCOc1ccccc1N1CCN(C(=O)NCc2ccc(F)cc2)CC1
  2.1, -1.2, 1.7, -1.2, 0.668, 22.1, -0.1, -5.5%, i
Cc1ccc(S(=O)(=O)N2CCN(CC(=O)NC3CCCc4ccccc43)CC2)cc1C (configuration not stated)
  -63.2, -3.0&-0.2, 0.2, 3.9, 0.673&0.679, -17.8, -29.1, 5.0%&1.6%, i
CC1CC(C)(C)CC2(C1)NC(=O)N(CC(=O)N1CCN(Cc3ccc(C#N)cc3)CC1)C2=O (configuration not stated)
  6.3, 0.8, 0.1, -0.1, 0.711, /, 13.4, -3.0%, i
CCC(=O)N1[C@@H]2c3ccc(C4=CCCC4)c(=O)n3C[C@@H]2[C@@H](CO)[C@@H]1C(=O)NC1CCCC1
  2.5, /, -0.6, -1.5, /, /, 1.7, /, i
COCc1ccc(C(=O)N2CCN(CC(=O)N3CCCC3)CC2)cc1
  /, 1.6, -3.8, /, 0.695, /, /, /, i
CN(C)c1nc(-c2cccnc2)nc(-c2ccccc2)c1C#N
  -1.9, -7.5, -3.0, -6.5, 0.686, -4.1, 1.4, -73.1%, i
O=C(Nc1ccccc1)OC1CCCCc2cccnc21 (configuration not stated)
  -12.7, -8.8, -2.8, -3.8, 0.636, 25.8, -19.5, -0.7%, i
COc1ccc(N(C(=O)c2cccnc2)S(=O)(=O)c2ccc(OC)c(OC)c2)cc1
  2.8, 3.6, 2.4, -3.4, 0.74, -5.6, 7.4, -1.3%, i
CN1[C@@H](COCc2ccccc2)C=CS1(=O)=O
  22.2, -0.3, -2.7, 16.6, /, /, 0.8, /, i
O=C(Nc1ccc(S(=O)(=O)Nc2ncccn2)cc1)c1cnc(Cl)c(Cl)c1
  14.1, 0.6, -1.5, 30.5, 0.661, -8.5, 27.4, -10.0%, i
NC(=O)[C@H]1CC2(CC(c3cccc(NC(=O)COc4ccc(Cl)cc4)c3)=NO2)CN1C(=O)C(c1ccccc1)c1ccccc1 (some centres not stated)
  12.0, -3.8, 1.5, -1.7, /, 2.0, 9.0, 0.9%, i
CC(C)c1ccc(SCc2noc(C(=O)NCC3CCCO3)c2C(=O)O)cc1 (configuration not stated)
  -14.2, -8.2, 4.4, -6.4, 0.669, 96.9*, -17.6, 68.5%, i
O=C(CC(C(=O)O)c1c(F)cccc1Cl)c1ccc(Cl)cc1 (configuration not stated)
  -6.3, 3.5, -1.5, -0.9, 0.701, -5.0, -0.4, -1.2%, i
O=C1NC[C@@H](c2ccccc2)OC(=O)[C@H](Cc2ccc(F)cc2)C/C=C\C[C@H]1CC(=O)N(CCO)Cc1ccccc1
  -6.4, 0.8, 1.9, -4.4, /, -0.1, -6.6, /, i
CCC1(c2ccccc2)NC(=O)N(CC(=O)NCc2ccc(OC)cc2)C1=O (configuration not stated)
  7.0, 7.1, -5.3, 2.7, 0.635, -3.2, -3.1, -0.8%, i

A few values from the results shown.
Cc1ccc(S(=O)(=O)N2CCN(CC(=O)NC3CCCc4ccccc43)CC2)cc1C (configuration not stated) – Ecoli rRNA inh RFP: 3.9
Cc1cccc(N2CCN(C(=O)c3ccc4nc(-c5ccco5)c(-c5ccco5)nc4c3)CC2C)c1 (configuration not stated) – E coli growth: 0.702

These rows are one share of the data. The share of hits here may be higher or lower than overall.
